High-throughput results deposited in PubChem BioAssay by National Center for Advancing Translational Sciences (NCATS).
Cruzain noTriton – blocks cruzain activity in detergent-free assay. P25779. purified cruzain, Z-FR-AMC fluorescence, no detergent. Potency, µM, for the others: max response, negative = inhibition, hits mostly inhibitors. actives 2.3% (n = 200,000);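 note: plate controls were enzyme without inhibitor for no effect and buffer without enzyme for full effect; nearly all actives have a fitted effect of over 40% in size; top concentration of the series not given in the record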
Target sequence (P25779 123-467 limits assumed): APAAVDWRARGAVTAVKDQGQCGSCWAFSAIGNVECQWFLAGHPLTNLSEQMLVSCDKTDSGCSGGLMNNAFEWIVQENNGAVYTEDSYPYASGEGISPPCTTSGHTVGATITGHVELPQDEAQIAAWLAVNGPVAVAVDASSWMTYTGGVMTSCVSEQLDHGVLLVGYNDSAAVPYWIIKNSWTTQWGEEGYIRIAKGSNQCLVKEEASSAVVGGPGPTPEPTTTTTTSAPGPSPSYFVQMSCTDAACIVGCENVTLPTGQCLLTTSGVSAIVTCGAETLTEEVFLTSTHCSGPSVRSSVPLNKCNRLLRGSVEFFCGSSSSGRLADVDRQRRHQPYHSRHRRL
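Purified cruzain at 1.5 nM, pre-incubated 15 min with compound at room temperature in 100 mM sodium acetate pH 5.5, 5 mM DTT, 0.00005% Triton X-100. Reaction started with 2 uM Z-FR-AMC; AMC fluorescence increase over 60 s gives rate.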
StopGo reporter – lowers the luciferase signal of an FMDV 2A StopGo reporter; human cells with a luciferase reporter of 2A StopGo recoding; control for the full effect not named in the record; Potency, µM (doses to about 57.9 µM), inactives show at the highest dose signal change, negative = less light; actives 1.2% (n = 410,000); AID 1159524; active = well fitted falling curve with a large enough effect; inconclusive = small, poorly fitted or top-dose-only effect; inactive = no such curve, though single readings can be large or run the other way; tested in HEK293T cells; note: % is set by controls: 0 for no effect and ±100 for the full control effect; nearly all actives have a fitted effect of over 45% in size; luciferase light after 4 h
LASV entry inh – Lassa virus entry inhibition. Lassa virus pseudotype entry inhibition, cell reporter; control for the full effect not named in the record. Potency, µM (titrated, usually from 37.9 µM), without a hit: top-dose activity change, negative = inhibition, usual class: inhibitors. actives 1.2% (n = 300,000). AID 540256; active means well fitted inhibition curve with a large enough effect; inconclusive means small, poorly fitted or top-dose-only effect, or effect the other way; inactive means flat fitted curve, though single readings scatter; tested in HEK293 cells; note: % is set by controls: 0 for no effect and ±100 for the full control effect; nearly all actives have a fitted effect of over 50% in size; luciferase read-out
NS1 inh – inhibitors of influenza NS1 protein function | S. cerevisiae slowed by influenza A NS1, growth recovery by OD600 | Potency, µM (titrated, usually from 46.1 µM), without a hit: at the highest dose activity, positive = more growth | actives 0.4% (n = 270,000); active means well fitted rising curve with a large enough effect; inconclusive means small, poorly fitted or top-dose-only effect; inactive means no such curve, though single readings can be large or run the other way; note: nearly all actives have a fitted effect of over 50% in size
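A cell-based growth assay was used: compounds that relieve NS1-induced slow growth of budding yeast raise OD600. Assay medium was yeast nitrogen base with ammonium sulphate and -URA supplement, pH 6.0, with 2% galactose.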
Cruzain Triton – cruzain (T. cruzi) inhibition with detergent | P25779 | purified cruzain, Z-FR-AMC fluorescence, 0.01% Triton | Potency, µM, for inactives: max response, negative = inhibition, usual class: inhibitors | actives 0.43% (n = 200,000) | AID 1478;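 note: plate controls were neutral wells for no effect and buffer without enzyme for full effect; nearly all actives have a fitted effect of over 40% in size; top concentration of the series not given in the record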
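Cruzain (1.5 nM) preincubated 15 min at RT with compound in 100 mM sodium acetate pH 5.5, 5 mM DTT, 0.01% Triton X-100. Reaction started with 2 uM Z-FR-AMC; AMC fluorescence (ex 360/em 450 nm) change over 60 s gave rate.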
RE007 growth inh – less growth of the S. pombe RE007 Vpr strain; AID 651644; Potency, µM (series often up to 92.2 µM), inactives show at the top dose activity change, negative = less growth; S. pombe RE007 Vpr strain, BacTiter-Glo ATP luminescence, 24 h; control for the full effect not named in the record; actives 0.21% (n = 360,000); active = well fitted falling curve with a large enough effect; inconclusive = small, poorly fitted or top-dose-only effect; inactive = no such curve, though single readings can be large or run the other way;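 note: % is set by controls: 0 for no effect and ±100 for the full control effect; nearly all actives have a fitted effect of over 50% in size; the assay follows cell death caused by Vpr and the record does not say whether a fall means rescue or toxicity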
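Fission yeast RE007 carrying one integrated HIV-1 vpr copy, seeded at OD 0.01 in PMG+AL medium with 23 nL pinned compound. Grown 24 h at 30 degrees; viability read by BacTiter-Glo luminescence after 5 min.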
MARV entry inh – blocks Marburg virus binding to or entry into cells; Marburg virus pseudotyped entry inhibition, cell reporter; control for the full effect not named in the record; about a third of the inactives were read at about 46 µM; Potency, µM (highest dose often 37.8 µM), for the others: at the top dose activity change, negative = inhibition, actives largely listed as inhibitors; actives 1.8% (n = 300,000); AID 540276; active = well fitted inhibition curve with a large enough effect; inconclusive = small, poorly fitted or top-dose-only effect, or effect the other way; inactive = flat fitted curve, though single readings scatter; tested in HEK293 cells; about a fifth of its hits are not listed in these tables; note: % is set by controls: 0 for no effect and ±100 for the full control effect; luciferase read-out
SARS PLpro yeast – blocks SARS-CoV papain-like protease in a yeast assay; S. cerevisiae expressing SARS-CoV PLpro, growth rescue; control for the full effect not named in the record; AID 485353; Potency, µM (series often up to 32.9 µM), without a hit: at the highest dose activity, positive = growth rescue; actives 0.19% (n = 330,000); active means well fitted rising curve with a large enough effect; inconclusive means small, poorly fitted or top-dose-only effect; inactive means no such curve, though single readings can be large or run the other way; note: 0% is about no effect; nearly all actives have a fitted effect of over 55% in size; growth read by luminescence after 48 h
An asterisk follows results filed as active; ? = inconclusive; · = not tested or not shown; & = joins results of further samples; [ ] = dose if it differs, or a comment. Unless noted, calls come from the whole dose curve; as a rule, active = well fitted curve in the direction sought with a large enough effect; inconclusive = small, poorly fitted or top-dose-only effect, or another doubt; inactive = no such curve, though single readings can be large; an effect the other way counts as inactive or inconclusive. Potency is the fitted concentration of half-maximal effect.

SMILES	Cruzain noTriton	StopGo reporter	LASV entry inh	NS1 inh	Cruzain Triton	RE007 growth inh	MARV entry inh	SARS PLpro yeast
CCC(=NCc1ccccc1)c1c(C(F)(F)F)[nH]n(-c2nc3ccccc3s2)c1=O	21%	-2%	2%	10%	-6.7%	-14%[3.69 µM]	11%	3%
CCc1ccc(OCc2nnc(SCCN3CCOCC3)n2C)cc1	7%	-3%	?	-2%	3.8%	17%	-17%	8%
O=C(O)c1cc(N/N=C/c2ccc3c(c2)OCCO3)ccc1Cl	-1%	2.5µM*	1.6µM*	15%	-8.1%	20%	?	-18%
COc1ccc(/C=C(/NC(=O)c2cccs2)C(=O)NCc2ccco2)cc1OC	·	15%	-9%[46.1 µM]	1%	·	-7%	9%[46.1 µM]	0%
Cc1nc(SCC(=O)Nc2ccc3c(c2)OCCO3)c2oc3ccccc3c2n1	?	-18%	-4%	6%	3.6%	18%	-29%	1%
C=Cc1ccc(CN2CCCN(Cc3ccc(F)cc3)S2(=O)=O)cc1	·	19%	·	0%	·	12%	·	-5%
COc1ccc(OC)c(-n2c(O)cnc2Nc2nc(C)cc(C)n2)c1	-9%	-12%	21%	-1%	-1.4%	13%	?	1%
CCOc1ccc(NC(=O)OCCN2CCN(CCc3ccccc3)C(C)C2)cc1 (stereo not given)	·	?	?	·	·	-20%	?	·
CSc1cccc(NC(N)=O)c1	·	0%	-3%[46.1 µM]	0%	·	9%	2%[46.1 µM]	0%
CCOc1ccc(Nc2ccc(N)c(S(=O)(=O)O)c2)cc1	·	-9%	-2%[46.1 µM]	·	·	-3%	0%[46.1 µM]	·
Cc1ccc(NC(=O)CN2CCN(c3ccccn3)CC2)c(Cl)c1	-2%	13%	-20%	-16%	-3.4%	-7%	7%	-5%
Cc1cc(Cl)ccc1Oc1ccc(C(N)=O)cc1[N+](=O)[O-]	1%	0%	-5%	-5%	-3.9%	2%	?	-3%
Cc1cc(=O)oc2cc(OCC(O)CN3CCN(c4ccc(F)cc4)CC3)ccc12 (stereo not given)	-6%	·	5%	-5%	-10%	-11%	-29%	0%
Cc1ccc(C(C)(C)NC(=O)C2CCC(=O)N(C3CCCCCC3)C2)cc1 (stereo not given)	·	28%	8%[46.1 µM]	-1%	·	15%	11%[46.1 µM]	11%
O=C(c1ccc(C(F)(F)F)cc1)N1CCN(S(=O)(=O)c2ccc3c(c2)OCCCO3)CC1	·	?	?	0%	·	0%	-22%	-4%
O=C(COC(=O)c1c2c(nc3ccccc13)/C(=C\c1cccs1)CCC2)Nc1ccccc1	10µM*	-4%	?	24%	-0.5%	-14%	?	-4%
COc1ccc(S(=O)(=O)N2CCC(C(=O)Oc3c(OC)cccc3OC)CC2)cc1OC	·	-28%	?	6%	·	13%	-15%	4%
C=CCC1c2cccc(C(=O)O)c2C(=O)N1c1ccc(Cl)cc1 (stereo not given)	-2%	-2%	1%	-135%	-0.7%	0%	8%	-16%
O=S(=O)(c1cccc(Cl)c1)N1CN(CC2CCCO2)c2nc3ccccc3nc21 (stereo not given)	·	-8%	?	6%	·	3%	-8%[46.1 µM]	-4%
Cc1cccc(Cn2cnc3c(oc4ccccc43)c2=O)c1	6%	43%[activator]	27%[46.1 µM]	·	-6.9%	·	·	·
O=C(COC(=O)CC1CC2CCC1C2)Nc1ccc(F)cc1 (stereo not given)	·	-12%	·	-35%	·	8%	·	-4%
CCc1ccc(CNC(=O)c2nn(-c3ccc(C)c(C)c3)nc2CO)cc1	-1%	-2%	?	·	0.6%	·	4%[46.1 µM]	·
NC(=O)N/N=C/c1sc(=O)n(-c2ccccc2)c1Cl	·	23%	8%	1%	·	-22%	-1%	6%
CC(C)c1nc(SCC(=O)Nc2ccc([N+](=O)[O-])cc2Br)n[nH]1	·	?	-26%	·	·	4%	?	1%
CC(=O)c1ccc(NC(=O)C(C)Sc2nnnn2C)cc1 (stereo not given)	-6%	23%	53%[14.3 µM]	3%	6.7%	5%	24%	3%
COc1ccc(CCN(C)C(=O)C2CCN(C(=O)Nc3ccccc3)CC2)cc1OC	·	-20%	20%	·	·	-1%	14%[46.1 µM]	-3%
CC(C)OCCCNC(=O)C1CCN(S(=O)(=O)N2CCCCC2)CC1	-1%	·	1%	-9%	-2.2%	2%	11%	-2%
COc1ccc(-n2c(Cc3cccn3C)nnc2SCC(=O)Nc2ccccc2)cc1	4%	-2%	·	6%	0.0%	-6%	4%	-1%
COc1ccc(CNC(=O)c2nn(C)c3c2CSc2ccccc2-3)cc1	3%	1%	3%[46.1 µM]	·	-4.3%	·	14%[46.1 µM]	·
O=[N+]([O-])c1ccc(OCC2CC(c3ccccc3)=NO2)cc1 (stereo not given)	·	7%	-11%	3%	·	-20%	15%[46.1 µM]	-1%
CC(C)c1ccc(OCC(=O)Nc2c3c(nn2C(C)(C)C)CS(=O)(=O)C3)cc1	·	-27%	-30%	·	·	2%	?	-8%
Cn1nc(C(=O)N2CCN(c3ccccc3F)CC2)c2c1-c1ccccc1S(=O)(=O)C2	9%	-15%&-22%	?	-14%	-2.3%	3%	·	-15%
CC(C)(C)OC(=O)N1CCC(c2cc(-c3cccs3)n[nH]2)CC1	·	-19%	?	-4%	·	8%	?	-2%
Cc1cc(C)cc(NC(=O)C(=O)NCCc2sc(-c3cccc(F)c3)nc2C)c1	-3%	0%	8%[46.1 µM]	·	-3.0%	·	·	·
CCCCN(C(=O)c1ccc2c(c1)S(=O)(=O)N=C1CCCCCN12)c1c(N)n(CCCC)c(=O)[nH]c1=O	·	-4%	0%	·	·	4%	-7%[46.1 µM]	-1%
Cc1ccc(-c2nc(-c3cc4cccc(OCc5cccc(C)c5)c4oc3=O)no2)cc1	?	-13%	23%[46.1 µM]	·	-7.4%	·	2%[46.1 µM]	·
O=C(NC(=S)NC1CCCCC1)c1ccccc1[N+](=O)[O-]	·	12%	·	1%	·	-11%	·	11%
N#CC1=C(N2CCCCC2)c2cc3c(n2C1=O)CCCC3	0%	-4%	?	-62%	-9.1%	-1%	-26%	-16%
CCOC(=O)c1oc2ccc(S(=O)(=O)n3nc(-c4ccccc4)cc3N)cc2c1C	?	?	·	12%	-6.0%	-6%	2%	2%
CCOc1cc(N2CCOCC2)c(OCC)cc1NC(=O)c1ccc2ccccc2n1	·	-4%	-17%[46.1 µM]	17%	·	6%	15%[46.1 µM]	-2%
Cc1ccc(NC(=O)COc2ccc3oc4c(c3c2)CCCC4)c(C)c1	10%	-24%	15%[46.1 µM]	·	-0.9%	·	4%[46.1 µM]	·
Cc1ccc(-c2nc3ccccc3o2)cc1NC(=O)c1cccc2c(Cl)cccc12	-7%	-3%	-21%[46.1 µM]	·	0.8%	·	?	·
CN1CCN(NC(=S)NC2CCCC2)CC1	·	-4%	·	-8%	·	-1%	·	0%
CCCC(C)c1nnc(NC(=O)c2cc(C(=O)OC)cc([N+](=O)[O-])c2)s1 (stereo not given)	-7%	?	5%	11%	-4.3%	-3%	8%	-9%
Cc1ccc(CCNC(=O)CN(c2ccc(C)cc2)S(=O)(=O)c2c(C)noc2C)cc1	7%	-17%&2%	-19%[46.1 µM]	11%	-5.6%	0%	-3%&-3%[46.1 µM]	2%
CCC(=NCC1CCCO1)c1c(O)n(Cc2ccccc2)c(=O)[nH]c1=O (stereo not given)	-4%	?	1.6µM*	5%	-2.0%	4%	13%	-4%
CCc1nnc(NC(=O)c2c(OC)cccc2OC)s1	8%	4%	-15%	-13%	2.9%	12%	11%&-1%	2%
COCCCNC(=O)Nc1ccc(Br)cc1Cl	-5%	58%[activator]	42%[14.3 µM]	-3%	-3.6%	2%	15%	-8%
O=C(CN1C(=O)COc2ccc(S(=O)(=O)N3CCCCC3)cc21)NCCc1ccc(Cl)cc1	-5%	2%	-19%[46.1 µM]	·	-3.2%	·	·	·
CCOC(=O)c1cccc2c1-c1ccccc1/C2=N/O	5%	·	-3%	-35%	-13%	-7%	0%	-26%

New compounds follow
SMILES	Cruzain noTriton	StopGo reporter	LASV entry inh	NS1 inh	Cruzain Triton	RE007 growth inh	MARV entry inh	SARS PLpro yeast
CCOc1cc(N2CCOCC2)c(OCC)cc1NC(=O)COc1cccc2cccnc12	4%	?	6.3µM*	-10%	-1.9%	-24%	4.5µM*	-4%
COc1ccc(C2=NN(Cc3ccccc3)C3C(=O)NC(=O)C23)cc1 (stereo not given)	·	12%	-14%[46.1 µM]	-3%	·	-7%	?	-1%
O=C1CCCN1CC(O)CS(=O)(=O)Cc1ccc(Cl)c(Cl)c1 (stereo not given)	·	-9%	·	2%	·	21%	·	1%
CC(=O)NC(Cc1c[nH]c2ccccc12)C(=O)NCc1ccc2c(c1)OCO2 (stereo not given)	-13%	0%	-25%	2%	3.6%	-2%	2%	0%
Nc1ccc(C(=O)Nc2ccc(Nc3ccncc3)cc2)cc1	·	-6%	·	-5%	·	-4%	·	0%
COc1cccc(/C=N/Nc2ccnc(=O)[nH]2)c1O	·	-11%	?	3%	·	0%	?	4%
COc1ccc2o/c(=N/NC(=S)Nc3ccccc3)c(C(N)=O)cc2c1	6.3µM*	·	·	2%	-12%	·	-2%	-9%
Cc1ccc(C(=O)/C=C/Nc2ccccc2C(N)=O)cc1	-3%	-47%	?	-20%	-2.6%	?	?	-23%
Cc1ccccc1-n1c(Cn2c(=O)sc3ccccc32)nnc1SCC(N)=O	0%	-2%	·	-6%	-4.4%	-9%	-4%	-6%
CC1CCCCC1NCC#CCOc1ccc(Cl)cc1 (stereo not given)	·	-9%	·	1%	·	-10%	·	2%
Cc1ccc(S(=O)(=O)N(C)c2ccc(C(=O)Nc3c(C)n(C)n(-c4ccccc4)c3=O)cc2)cc1	·	-19%	·	-5%	·	-1%	7%	1%
Cc1nc(Nc2cccc(C(F)(F)F)c2)nc2c1C(=O)CC(C)C2 (stereo not given)	16µM*	-11%	-6%	6%	4.7%	1%	8%	0%
